Compound activity: PubChem, National Center for Advancing Translational Sciences (NCATS)
D2 ag: human D2 receptor agonism in beta-arrestin assay. P14416. DiscoveRx PathHunter D2 beta-arrestin, luminescence, 90 min; 100% = 57 uM dopamine signal. activation, % (test concentration not listed). 0.084% of 360,000 active; in the data active = activation above about 40%; inconclusive = about 15% to 40%; inactive = below about 15%; further: compound concentration not given in the record; the text of the record calls up to 30% inactive
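DiscoveRx PathHunter D2 beta-arrestin cells (2,100/well) attached overnight, then compound-stimulated 90 min at 37 C in HBSS/10 mM HEPES/0.1% Tween-20 buffer; beta-galactosidase complementation read by luminescence after 1 h at ambient temperature. Dopamine 57 uM final (EC100) as control.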
D2 PAM: human D2 receptor positive allosteric modulation. DiscoveRx D2 beta-arrestin cells, luminescence, 90 min; 100% = 57 uM dopamine signal. potentiation, % (concentration not given with the values). 0.23% of 360,000 active. AID 624464; active = potentiation of 50% or more; inconclusive = 30% to 50%; inactive = 30% or less;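 further: compound concentration not given in the record; tested on top of an EC20 dose of dopamine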
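PathHunter beta-arrestin assay in DiscoveRx D2 cells. Compounds were added with an EC20 of dopamine (50 nM final) for 90 min at 37 deg C. Luminescence was read 1 h after detection reagent, with 57 uM dopamine as the EC100 control.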
TRPML1 agonist: human mucolipin-1 channel agonism. Q9GZU1. TRPML1-expressing cells, Ca2+ dye fluorescence, FDSS; host cell line not named in the record; reference of the full effect not given here. activation, % (test concentration not listed). 0.12% of 410,000 active. AID 624414; in the data active = activation above about 50%; inconclusive = about 30% to 50%; inactive = below about 30%; further: 0% is about no effect; the text of the record puts the active cut at 80%
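In this qHTS format, compounds were pin-transferred onto Ca8-dye-loaded TRPML1-DL cells induced with Tet overnight, and intracellular Ca2+ fluorescence was recorded kinetically for 110 s after a 10 s baseline. A subsequent 4uM final 54-4 (EC80) addition followed by a second 110 s read served as the antagonist phase.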
CtBP-E1A inh: blocks the CtBP interaction with E1A; AlphaScreen GST-E1A/His-CtBP binding, 1536-well; hits give low values; control for the full effect not named in the record; activity change, % (no concentration beside the values); 0.49% of 340,000 active; AID 651724; in the data active means activity change below about -65%; inconclusive means about -30% to -65%; inactive means above about -30%; further: on the % scale 0 is the no-effect control and ±100 the full control effect; compound concentration not given in the record
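In 5 uL wells, 23 nL compound meets equimolar GST-E1A and His-CtBP (5X stock 125 nM each) for 2 h, 37 °C. Beads (5X, 50 ug/mL) then 1 h, 37 °C, dark.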
Six1-Eya2 inh: Six1/Eya2 interaction inhibition; Q15475+O00167; AlphaScreen GST-Six1/His-Eya2 binding, biochemical; hits give low values; control for the full effect not named in the record; activity change, % (no concentration beside the values); 0.56% of 360,000 active; AID 651725; in the data active = activity change below about -65%; inconclusive = about -30% to -65%; inactive = above about -30%; further: on the % scale 0 is the no-effect control and ±100 the full control effect; compound concentration not given in the record
Target sequence (O00167 whole entry, looked up): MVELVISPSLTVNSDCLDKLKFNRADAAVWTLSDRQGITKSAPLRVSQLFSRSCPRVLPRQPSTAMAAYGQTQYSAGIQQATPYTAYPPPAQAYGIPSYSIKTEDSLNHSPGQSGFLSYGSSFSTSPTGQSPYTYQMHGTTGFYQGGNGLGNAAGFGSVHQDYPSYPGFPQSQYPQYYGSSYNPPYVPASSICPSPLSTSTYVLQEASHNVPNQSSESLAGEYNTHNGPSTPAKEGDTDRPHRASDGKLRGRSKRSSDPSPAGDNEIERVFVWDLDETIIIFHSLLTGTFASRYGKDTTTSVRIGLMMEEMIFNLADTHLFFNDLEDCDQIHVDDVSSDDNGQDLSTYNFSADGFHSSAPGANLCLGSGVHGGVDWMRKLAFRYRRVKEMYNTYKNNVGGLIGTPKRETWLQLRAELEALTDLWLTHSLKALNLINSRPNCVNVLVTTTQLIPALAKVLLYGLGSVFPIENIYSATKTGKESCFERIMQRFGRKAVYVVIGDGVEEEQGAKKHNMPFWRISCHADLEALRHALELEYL
Target sequence (Q15475 whole entry, looked up): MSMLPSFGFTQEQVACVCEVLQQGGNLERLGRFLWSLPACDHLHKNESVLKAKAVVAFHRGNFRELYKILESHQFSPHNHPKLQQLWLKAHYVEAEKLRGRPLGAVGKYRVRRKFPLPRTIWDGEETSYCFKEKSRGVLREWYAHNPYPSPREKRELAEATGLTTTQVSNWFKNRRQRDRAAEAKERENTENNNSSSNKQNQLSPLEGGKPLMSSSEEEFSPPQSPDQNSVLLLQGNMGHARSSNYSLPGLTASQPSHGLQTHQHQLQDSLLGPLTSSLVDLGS
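AlphaScreen with GST-Six1 and His-Eya2 (5X mix: 250 nM and 500 nM), glutathione donor and nickel acceptor beads; buffer 50 mM Tris pH 8.0, 300 mM NaCl, 1 mM TCEP; 1 h at 37 C in the dark.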
PINK1 modulator: PINK1 expression modulation; Potency, µM (doses to about 76.6 µM), for inactives: at the highest dose activation (PINK1 increase), most hits filed as activators; 0.2% of 410,000 active; PINK1 immunofluorescence, high-content cytometry, 24 h; active = well fitted activation curve with a large enough effect; inconclusive = small, poorly fitted or top-dose-only effect; inactive = flat fitted curve, though single readings scatter; cell line not stated here;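 further: potency means the concentration at half of the fitted maximal effect; % of control where 0% means no effect; nearly all actives have a fitted effect of over 65% in size; a mitochondrial uncoupler was the plate control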
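Compound titrations (5 concentrations, 24 h) on a stable cell line; DMSO and CCCP controls. Endpoint: fixed-cell PINK1 immunofluorescence with mitochondrial, cell and nuclear markers, scanned by microplate cytometer.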
Active calls of the source: *; ? = inconclusive; . = no result given; [ ] = another dose, or the depositor's remark.

SMILES	D2 ag	D2 PAM	TRPML1 agonist	CtBP-E1A inh	Six1-Eya2 inh	PINK1 modulator
O=C(NCc1ccco1)c1ccc(-c2ccccc2Cl)o1	-2.0	-15	2.2	-15	-14	-0.2%
Cc1ccc(C(=O)Nc2cccnc2)cc1[N+](=O)[O-]	-4.7	-4	4.3	6	1	-2.6%
CC(C)=C1C2C=CC1C1C(=O)N(c3ccc4c(c3)OCO4)C(=O)C21 (stereo not drawn)	-0.1	2	1.9	-1	3	0.9%
CC1CCCN(S(=O)(=O)c2ccc(C(=O)Nc3nnc(-c4ccccn4)o3)cc2)C1 (stereo not drawn)	2.4	-8	0.6	.	0	0.0%
CC/C(=N\NC(=O)c1ccc(N(C)C)cc1)c1ccccc1	-1.3	-11	-0.6	2	3	-1.2%
Cc1cc(C)n(/N=C/c2cc([N+](=O)[O-])ccc2O)c(=O)c1	-6.2	-10	-0.6	4	4	1.3%
CCCCn1c(=O)[nH]c(=O)c2c1nc(-c1ccc(-c3ccccc3Br)o1)n2CCOC	-0.8	-2	-0.1	-3	3	10%
CC1CCc2c(sc3nc(C4CC4)nc(N4CCN(C(=O)c5ccco5)CC4)c23)C1 (stereo not drawn)	-3.8	-13	0.6	-19	-18	10%
NC(=O)C1CCN(C(=O)c2cc(S(=O)(=O)N3CCN(c4ccccc4)CC3)ccc2Cl)CC1	-1.9	-1	0.1	1	7	0.1%
O=C(c1ccccc1)c1ccc(OCC(O)CNCc2ccc(F)cc2)cc1 (stereo not drawn)	-13	-12	1.7	0	0	-2.6%
CCCNC(=O)c1cc(OC)c(OC)cc1[N+](=O)[O-]	-0.7	-8	0.5	-2	8	0.1%
O=C(CSCCO)Nc1cccc(C(F)(F)F)c1	1.7	-9	-0.7	15	5	22%[38.3 µM]
CC1CN(C(=O)c2ccc(CNS(=O)(=O)c3cccc(Cl)c3)cc2)CC(C)O1 (stereo not drawn)	-4.6	-2	0.0	-1	0	3.4%
CC(C)(C)c1ccc(OCc2ccc(C(=O)NCc3cccnc3)o2)cc1	4.1	1	-1.3	.	-7	0.6%
Cc1cccc(NC(=O)NNC(=O)COc2ccc3ccccc3c2)c1	-2.4	-12	0.1	-11	1	11%
O=C(Nc1cc(C(F)(F)F)ccc1Cl)c1cc(C2CC2)on1	-3.7	-6	1.8	10	6	-0.2%[38.3 µM]
Cc1cc(Nc2ccccc2)n(C(=O)c2ccc(N)cc2)n1	-3.1	-18	1.7	-24	-7	3.5%
CC1CCN(C(=O)CSc2nc(N)c(NC(=O)c3ccccc3)c(=O)[nH]2)CC1	9.2	2	0.1	8	12	-1.1%
CCC(CO)NCC#Cc1ccccc1 (stereo not drawn)	-2.4	-6	-0.2	0	15	1.6%
COc1ccc(CC(=O)Nc2nc(OCCN3CCCC3=O)cnc2-c2cccc(C(F)(F)F)c2)cc1	-2.4	-14	-0.3	-3	-1	1.3%

Quoted at random: five compounds from above.
SMILES	D2 ag	D2 PAM	TRPML1 agonist	CtBP-E1A inh	Six1-Eya2 inh	PINK1 modulator
COc1ccc(CC(=O)Nc2nc(OCCN3CCCC3=O)cnc2-c2cccc(C(F)(F)F)c2)cc1	-2.4	-14	-0.3	-3	-1	1.3%
CC1CCCN(S(=O)(=O)c2ccc(C(=O)Nc3nnc(-c4ccccn4)o3)cc2)C1 (stereo not drawn)	2.4	-8	0.6	.	0	0.0%
Cc1ccc(C(=O)Nc2cccnc2)cc1[N+](=O)[O-]	-4.7	-4	4.3	6	1	-2.6%
O=C(CSCCO)Nc1cccc(C(F)(F)F)c1	1.7	-9	-0.7	15	5	22%[38.3 µM]
Cc1cccc(NC(=O)NNC(=O)COc2ccc3ccccc3c2)c1	-2.4	-12	0.1	-11	1	11%

Copied from the entries so far (three entries):
SMILES	D2 ag	D2 PAM	TRPML1 agonist	CtBP-E1A inh	Six1-Eya2 inh	PINK1 modulator
O=C(NCc1ccco1)c1ccc(-c2ccccc2Cl)o1	-2.0	-15	2.2	-15	-14	-0.2%
Cc1ccc(C(=O)Nc2cccnc2)cc1[N+](=O)[O-]	-4.7	-4	4.3	6	1	-2.6%
CC(C)=C1C2C=CC1C1C(=O)N(c3ccc4c(c3)OCO4)C(=O)C21 (stereo not drawn)	-0.1	2	1.9	-1	3	0.9%

Continued.
SMILES	D2 ag	D2 PAM	TRPML1 agonist	CtBP-E1A inh	Six1-Eya2 inh	PINK1 modulator
O=C(NS(=O)(=O)Oc1cccc(F)c1)OC[C@@H]1CCCN2CCCCC12 (stereo partly drawn)	-4.5	-3	0.6	3	7	2.1%
CC(=O)Oc1ccccc1C(=O)Oc1ccccc1C(=O)O	-0.3	-4	-0.8	-9	3	0.0%
O=C(NCc1ccc2c(c1)OCO2)C1CCCN1C(=O)Nc1cccc(Cl)c1 (stereo not drawn)	-1.1	-20	3.3	-6	0	-2.1%
CCC(=O)N1CCN(c2c(Cl)cccc2[N+](=O)[O-])CC1	-4.9	-11	0.6	0	10	-3.0%
COc1ccc2[nH]c(=O)c(CN(Cc3nnnn3Cc3ccc(F)cc3)CC3CCCO3)cc2c1 (stereo not drawn)	0.0	-11	-0.3	7	-1	2.9%
CC1Cc2ccccc2N1C(=O)Cn1cc([N+](=O)[O-])cn1 (stereo not drawn)	-3.5	-4	1.4	8	2	-0.9%
O=C(Oc1ccc(-c2cnc3ccccc3n2)cc1)c1cccc([N+](=O)[O-])c1	-1.4	5	0.3	-3	10	-0.7%
COC(=O)c1cc(O)c(OCc2ccccc2)c(O)c1	-7.8	-8	-1.9	2	2	-0.4%
N#CCC(=O)N1CCCCCC1	-1.4	-2	-0.6	1	4	0.4%
CCOc1ccc(S(=O)(=O)N2CCCC(C(=O)N3CCC(C(N)=O)CC3)C2)cc1Cl (stereo not drawn)	-1.3	0	-0.3	0	0	2.6%
CC(C)(C)c1ccc(Cn2nnc3c(=O)[nH]c(C4CCN(C(=O)c5ccco5)CC4)nc32)cc1	-4.3	-6	-0.3	3	-14	-1.5%
CCOC(=O)N1CN(C(=O)OCC)CN(C(=O)OCC)C1	-0.6	-16	0.2	.	3	0.9%
Cc1nnc(SCC(=O)NC(=O)NC(C)(C)C)n1N	-2.0	3	1.2	-8	-1	-2.9%
COc1cccc(CN(C)CC(O)COC(c2ccccc2)c2ccccc2C)c1 (stereo not drawn)	1.2	-20	0.0	-4	-7	?
CCOc1ccc2oc(C(=O)NNC(=O)c3csc(N4CCOCC4)n3)c(C)c2c1	-4.5	11	0.4	-2	20	-0.1%
O=C(c1ccco1)N(Cc1ccc(Cl)cc1)C1CCS(=O)(=O)C1 (stereo not drawn)	-9.9	-10	-0.4	.	-4	-1.7%
COc1ccc(NC(=O)C2=CC=CN3CCS(=O)(=O)N=C23)c(OC)c1	-5.0	-9	0.7	-17	-15	1.4%
Cc1c2cn[nH]c(=O)c2c(C)n1Cc1ccc(F)cc1	-6.9	-5	-0.5	1	-3	-0.2%
Nc1ccc(NC(=O)c2ccco2)c(Cl)c1	-1.4	-6	-0.3	2	-1	-0.8%
COc1ccc(C(C(=O)NC2CCCCC2)N2CCC3(CC2)OCCO3)cc1 (stereo not drawn)	0.6	-6	1.5	0	-2	-0.9%
COc1cccc(N2CCN(C(=O)c3ccc(CS(=O)c4ccccc4Cl)o3)CC2)c1 (stereo not drawn)	4.2	21	0.0	22	24	-1.0%
Cc1nnc2c(Oc3ccccc3)nc3ccccc3n12	2.3	1	-0.5	-7	4	-4.2%
CC(=O)c1c(NCCc2ccccc2)nc(=S)n(-c2ccccc2)c1C	-13	-9	0.8	-2	7	1.5%
O=C(c1cccc(Cl)c1)N1CCN(c2ncnc3c2cnn3-c2ccccc2)CC1	0.4	-3	-0.1	-23	2	2.9%
CS(=O)(=O)c1ccc(Cl)c(NC(=O)C2CCN(S(=O)(=O)c3cccs3)CC2)c1	-5.4	-15	-1.3	.	-6	-0.1%
N/C(Cc1ccc(Cl)cc1)=N\OC(=O)C1CCCCC1	-8.2	2	2.9	1	17	7.4%
Cc1ccccc1Nc1ncnc2c1cnn2-c1ccccc1	-2.2	-1	-0.8	-1	-12	4.7%
CCOc1ccc(N2C(=O)CNC2=S)cc1	-1.3	-4	-0.6	16	7	2.2%
C=C(C)COc1ccc2c(CC)cc(=O)oc2c1C	-0.9	-12	0.2	4	11	-1.2%
CC(C)(C)C(=O)N1CCc2cc(-c3csc(N)n3)ccc21	10	-14	-0.5	24	4	-0.3%
Cc1nc2ccccc2c(=O)n1/N=C/c1ccc(C(C)C)cc1	3.9	12	2.7	8	5	-0.2%
O=[N+]([O-])/C=C/c1cn(Cc2ccccc2)c2ccccc12	-1.7	-15	2.8	5	-3	0.8%
CC1CCCC(NC(=O)CN2C(=O)NC(C)(c3ccccc3)C2=O)C1C (stereo not drawn)	-2.5	-8	-0.3	-14	4	2.1%
CC(=O)c1ccc2ccccc2c1OC(=O)c1ccncc1	-2.9	-15	-0.8	2	6	2.1%
O=C(CSCc1ccc(Cl)cc1)NCCSCc1ccco1	-1.5	-4	1.8	-13	-24	1.1%
CCOC(=O)N1CCC(NC(=O)CSCc2nc(-c3cccc(OC)c3)oc2C)CC1	-2.2	-3	1.5	6	-3	2.3%
Cc1ccc(NC(=O)CSc2nccn2C)cc1F	-4.0	-22	1.1	-15	-5	-1.4%
O=C(c1cccc(-c2ccco2)c1)N1CCCC(N2CCN(c3ccc(F)cc3)CC2)C1 (stereo not drawn)	-4.2	-29	1.6	-15	-28	-2.5%
Cc1cc2c(cc1C)CSC(c1ccccc1O)SC2	-2.6	-5	-0.6	-2	-11	0.2%[38.3 µM]
CCN(CCn1cccn1)C(=O)c1cc(COc2cccc3cccnc23)on1	1.5	3	-0.5	2	-1	0.2%
CC(C)(C)OC(=O)C[C@@H]1C/C=C\C[C@@H](CC(=O)NCCO)C(=O)NCCOC1=O	-2.9	-6	-0.2	.	14	1.0%
COC(=O)c1nnc(-c2ccccc2)c(-c2ccccc2)n1	-0.5	-3	-0.3	-12	-10	-2.8%[38.3 µM]
Cc1ccc(C(C(=O)NC(C)(C)C)N(Cc2cccs2)C(=O)c2ccc3c(c2)OCCO3)cc1 (stereo not drawn)	-0.7	-2	1.4	0	-11	14%
O=S(=O)(Nc1ccc2c(c1)nc1n2CCN(Cc2ccccc2)C1)c1ccc(Cl)cc1	0.9	-6	-0.2	-13	-5	.
Cc1cc(C(=O)Nc2ccccc2Cc2ccccc2)no1	4.3	0	2.3	20	11	-1.2%
COc1cccc2cc(C(=O)N3CCN(C45CC6CC(CC(C6)C4)C5)CC3)c(=O)oc12	-0.2	-3	1.8	-2	3	-1.3%
CCOc1ccc(CCNC(=O)CCCn2nc(C)c3c(C)n(-c4ccccc4)nc3c2=O)cc1	-0.1	-9	1.7	-4	2	0.5%
CC(C)n1nnnc1-c1cc(Cl)cc(Cl)c1	-1.9	-9	-0.4	8	-2	7.6%[38.3 µM]
